# High-throughput results (PubChem BioAssay)
# GIRK2 act: activators of human GIRK2 potassium channels. P48051. HEK293-GIRK2 thallium flux, Thallos fluorescence. calls only for hits at 25 µM. 0.05% of 63,000 active;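 active = among the strongest 0.2% of first-round signals and kept after retests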;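 also: first round at about 10 µM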
# Target sequence (P48051 whole entry, looked up): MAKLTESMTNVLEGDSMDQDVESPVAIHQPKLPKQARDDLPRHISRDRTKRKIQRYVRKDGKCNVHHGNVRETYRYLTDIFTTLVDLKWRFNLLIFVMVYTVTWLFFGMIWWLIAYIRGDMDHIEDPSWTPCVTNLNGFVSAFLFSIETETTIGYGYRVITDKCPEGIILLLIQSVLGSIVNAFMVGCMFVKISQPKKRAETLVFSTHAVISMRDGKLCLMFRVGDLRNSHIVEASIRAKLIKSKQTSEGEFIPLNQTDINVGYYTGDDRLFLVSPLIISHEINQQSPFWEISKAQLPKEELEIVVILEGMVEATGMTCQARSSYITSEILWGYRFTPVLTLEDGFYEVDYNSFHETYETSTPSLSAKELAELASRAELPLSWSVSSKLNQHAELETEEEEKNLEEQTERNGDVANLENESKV
# Calls only; i = inactive.
SMILES,GIRK2 act
CCOc1cc(/C=N\Nc2nc3c(c(=O)[nH]c(=O)n3C)n2Cc2ccc(C)cc2)ccc1O,i
COc1ncccc1C(=O)N1CCC(c2nn(C)c(=O)n2-c2ccccc2)CC1,i
CC1CC(C)CN(S(=O)(=O)CCNC(=O)c2ccc3c(c2)OCO3)C1 (centres undefined),i
O=C(CCS(=O)(=O)c1ccccc1)N1CCC(c2ccccc2)C1 (centres undefined),i
O=[N+]([O-])c1cc(F)cc(I)c1,i
COc1coc(C(=O)Nc2ccccc2C(N)=O)cc1=O,i
COc1cc(OC)cc(C(=O)NCC2CCN(C)CC2)c1,i
Cc1ccc(C(=O)Nc2ccc(C(=O)NCCNC(=O)c3ccccc3C)cc2)cc1,i
CCOc1ccc2nc(N(CCN3CCOCC3)C(=O)c3ccc(Br)s3)sc2c1,i
O=C(NCC12CC3CC(CC(C3)C1)C2)N1CCN(c2ccccc2)CC1,i
COc1ccc(N2C(=O)C3N=NN(Cc4ccc(C)cc4)C3C2=O)cc1 (centres undefined),i
CSc1cccc(NC(=O)COc2cc(C)nc(N3CCCCCC3)n2)c1,i
COc1cc(C(=O)Nc2ccc(Cl)c3ncsc23)cc(OC)c1OC,i
COC(=O)c1ccc(C)c(Nc2nn3c(=O)c4cc5c(cc4nc3s2)OCO5)c1,i
COc1ccc(OC)c(-c2csc(-c3nnn(-c4ccc(F)cc4)c3N)n2)c1,i
CCCCCC1OC2=C(C(=O)N(OC)C2CSCC(O)C(=O)O)C(O)C1(C)O (centres undefined),i
Cn1c(SCc2cc(=O)n3ccccc3n2)nc2cc(-c3ccccc3)sc2c1=O,i
COc1ccc(OC)c(NC(=O)c2n[nH]n3c2nc(=O)c2cc(Cl)ccc23)c1,i
CC(=O)c1ccc(NC(=O)CCCCCn2nnc3ccccc3c2=O)cc1,i
Fc1ccc(Nc2ncnc3[nH]ncc23)cc1,i
COc1cccc(C(=O)c2oc3ccccc3c2NC(=O)c2cccs2)c1,i
CC(C)(C)NC(=O)N1CCC(CNC(=O)CSC2CCCC2)CC1,i
CCn1c(Cc2cccs2)nc2ccccc21,i
COC(=O)c1sc2ccccc2c1S(=O)(=O)Nc1cccc(SC)c1,i
COc1ccc(S(=O)(=O)NCCc2cn3ccccc3n2)cc1F,i
CN1CCOc2ccc(NC(=O)c3cc(-c4ccco4)on3)cc2C1=O,i
O=C(C(=O)N1CCOCC1)c1cn(CC(=O)N2CCCCC2)c2ccccc12,i
CCN(CC)CCCNC(=O)c1cc2cc([N+](=O)[O-])ccc2oc1=O,i
COc1ccc(C(=O)NCC(c2cccn2C)N2CCCC2)cc1OC (centres undefined),i
CS(=O)(=O)c1ccc(-c2nnc(SCCc3ccccc3)o2)cc1,i
O=C(CCS(=O)(=O)c1ccccc1)N1CCN(C2=NN=C(c3ccccc3)CS2)CC1,i
CCCCCC(O)/C=C/[C@H]1C(O)CC(O)[C@H]1C/C=C\CCCC(=O)NCCO (some centres undefined),i
COc1cccc(-c2ccc(=O)n(Cc3nc(-c4ccc5c(c4)OCO5)no3)n2)c1,i
CS(=O)(=O)c1ccc2nc(N3CCN(C(=O)COc4ccc(Cl)cc4)CC3)sc2c1,i
Cc1nnc(NC(=O)C2CCN(c3ccc(-c4ccco4)nn3)CC2)s1,i
CCCNC(=O)C1CCCN(c2nc3ccc(OC)cc3s2)C1 (centres undefined),i

# 7 entries already listed, arranged by molar mass, ascending.
SMILES,GIRK2 act
CCCNC(=O)C1CCCN(c2nc3ccc(OC)cc3s2)C1 (centres undefined),i
COc1ccc(S(=O)(=O)NCCc2cn3ccccc3n2)cc1F,i
CS(=O)(=O)c1ccc(-c2nnc(SCCc3ccccc3)o2)cc1,i
Cc1nnc(NC(=O)C2CCN(c3ccc(-c4ccco4)nn3)CC2)s1,i
O=C(C(=O)N1CCOCC1)c1cn(CC(=O)N2CCCCC2)c2ccccc12,i
O=C(CCS(=O)(=O)c1ccccc1)N1CCN(C2=NN=C(c3ccccc3)CS2)CC1,i
CS(=O)(=O)c1ccc2nc(N3CCN(C(=O)COc4ccc(Cl)cc4)CC3)sc2c1,i

# Returning to the listing with the two entries that preceded the break.
SMILES,GIRK2 act
Cc1nnc(NC(=O)C2CCN(c3ccc(-c4ccco4)nn3)CC2)s1,i
CCCNC(=O)C1CCCN(c2nc3ccc(OC)cc3s2)C1 (centres undefined),i
O=C(Cn1nc(C2CC2)cc1C(=O)N1CCCC1)N1CCN(c2ccc(Cl)cc2)CC1,i
COc1cc(OC)cc(C(=O)NCc2ccc(C(O)c3cccs3)s2)c1 (centres undefined),i
COc1ccc(S(=O)(=O)N2CCC(Cn3ccnc3)CC2)cc1,i
O=C(NCC1CCN(C2CCCC2)CC1)c1ccc(Cl)cc1,i
C#CCOCC1CCN(C(=O)c2c[nH]c3ccccc23)CC1,i
CCCCCn1c(=O)c2ccccc2n(Cc2nc(-c3ccccc3OC)no2)c1=O,i
O=C(Nc1nnc(-c2ccc(Cl)s2)o1)c1cnc2ccccc2n1,i
Cc1ccc(-n2ncc3c(=O)n(CC(=O)N4CCOCC4)cnc32)cc1C,i
Nc1nc(Cl)nc2c1ncn2[C@H]1C[C@H](O)[C@@H](CO)O1,i
CCOc1ccccc1NC(=O)Nc1cnc(N2CCCC2)nc1,i
Cc1ccccc1C(=O)NC1=N/C(=C(/C#N)C(=O)N2CCCCC2)c2ccccc21,i
CCOc1ccc(S(=O)(=O)N2c3ccccc3CC2C)cc1 (centres undefined),i

# Four of the compounds above, tab-delimited.
Structure	GIRK2 act
Nc1nc(Cl)nc2c1ncn2[C@H]1C[C@H](O)[C@@H](CO)O1	i
CCOc1ccccc1NC(=O)Nc1cnc(N2CCCC2)nc1	i
Cc1ccccc1C(=O)NC1=N/C(=C(/C#N)C(=O)N2CCCCC2)c2ccccc21	i
CCOc1ccc(S(=O)(=O)N2c3ccccc3CC2C)cc1 (centres undefined)	i

# The list continues.
SMILES,GIRK2 act
CCn1cc(C(=O)Nc2nncs2)c(=O)c2cc(Cl)ccc21,i
O=C(CN1C(=O)CCC1=O)NCC(O)c1ccc2c(c1)CCO2 (centres undefined),i
Cc1ccc2nc(N3CC(C(=O)NC(C)c4ccccc4)C3)sc2c1 (centres undefined),i
O=C(Nc1cccc(N2CCCS2(=O)=O)c1)C1CCCC1,i
COc1ccc(N2CCCn3c2nc2c3c(=O)n(CCc3ccccc3)c(=O)n2C)c(OC)c1,i
COc1cccc(COc2cn(C)c(C(=O)NCCc3c[nH]c4ccccc34)cc2=O)c1,i
COc1ccccc1CNC(=O)C(=O)Nc1cccc(N2CCCS2(=O)=O)c1,i
O=C(CSc1cc(-n2cccn2)ncn1)Nc1ccc(Cl)c(C(F)(F)F)c1,i
Cn1cc(OCc2ccccc2)c(=O)cc1C(=O)NCc1cccs1,i
COc1ccccc1N1CCN(c2nnc(SCC(=O)Nc3nnc(C)s3)s2)CC1,i
Cc1nc2ccccn2c1C(=O)Nc1ccc(-n2nnn(CC(=O)NCc3ccco3)c2=O)cc1,i
COc1nn(C)cc1C(=O)Nc1nc2c(s1)CCC2,i
Cn1nnn(-c2ccc(NS(=O)(=O)C3CC3)cc2)c1=O,i
O=C(NCC1(c2cccs2)CCOCC1)c1cccc(C(F)(F)F)c1,i
COc1ccc(OC)c(NCCn2c(C)c(C)n3c4c(=O)n(C)c(=O)n(C)c4nc23)c1,i
CC(=O)Nc1ccc(S(=O)(=O)Nc2ccc3c(c2)C(=O)N(C)CCO3)c(C)c1,i
Cc1cc(C(=O)NCC2CCC(c3nc4ccccc4[nH]3)CC2)no1 (centres undefined),i
Cn1nc(-c2ccc(F)cc2)cc1C(=O)NCCC(O)c1ccoc1 (centres undefined),i
COC(=O)c1cn(Cc2ccccc2C)nc1S(=O)(=O)N1CCCCC1,i
COC(=O)[C@H](c1ccccc1Cl)N1CCc2sccc2C1,i
CCOC(=O)Cc1csc2nc3[nH]ncc3c(=O)n12,i
O=C(c1cc(=O)c2ccccc2o1)N(C(=O)N1CCCCC1)c1ccccc1,i
Cc1ccc(N2CCN(S(=O)(=O)N(C)C)CC2)cc1Cl,i
O=C(Nc1cc(C2CC2)nn1-c1nc2c(c(=O)[nH]1)CCC2)C1CC1,i
Cc1cc(NS(=O)(=O)c2ccc(N/C=C(/C#N)c3nc(-c4cccs4)cs3)cc2)no1,i
O=C(Nc1ccc(-c2ccn[nH]2)cc1)c1ccc([N+](=O)[O-])o1,i
Cc1ccc(S(=O)(=O)N2CCCC(c3nnc(COc4ccccc4)o3)C2)c(C)c1 (centres undefined),i
CCOc1ccc(C)cc1S(=O)(=O)NCC(C)(O)CSC (centres undefined),i
CCOC(=O)C1CCc2sc(NC(=O)c3cc(C4CC4)on3)nc21 (centres undefined),i
O=C(Nc1ccc(OC(F)(F)F)cc1)c1cc(=O)c(OCc2ccccc2)co1,i
CCCCC(CC)CNc1nc2c(c(=O)[nH]c(=O)n2C)n1CC(O)COc1ccccc1 (centres undefined),i
COC(=O)c1ccc(C2CCN(S(=O)(=O)Cc3ccccc3)CC2)cc1,i
O=C(Nc1cccc(-c2ccn[nH]2)c1)c1ccco1,i
Cc1noc(C2CN(Cc3csc(C)n3)C2)n1,i
Cc1cc(=O)[nH]c2ccc(S(=O)(=O)Nc3ccc(C(=O)O)cc3)cc12,i
CCc1ccc(Nc2c(C(=O)N3CCSCC3)cnc3nc(C)ccc23)cc1,i
CCOC(=O)c1c(C)oc2cc(C=O)c(OC)cc12,i
COc1ccc(C)cc1N1CCCn2c1nc1c2c(=O)n(CC(C)C)c(=O)n1C,i
O=C(Nc1nc2c(s1)COCC2)c1nc2ccccc2s1,i
CCOC(=O)c1oc2cc(OS(C)(=O)=O)ccc2c(=O)c1-c1ccccc1OC,i
COc1cc(COCC2CCN(S(=O)(=O)c3ccc(C)c(C)c3)CC2)cc(OC)c1,i
CNC(=O)CN1CCC(c2nnc(C(F)(F)F)o2)CC1,i
COc1ccc(NC(=O)c2cc(C)cc(C)c2)cc1N1CCCC1=O,i
O=C(NCC1CCN(C(=O)c2ccncc2)CC1)c1ccc(Br)o1,i
O=C(NCC1CCN(S(=O)(=O)c2cccnc2)CC1)c1ccc2nsnc2c1,i
COC(=O)Cn1c(=O)n(Cc2ccco2)c(=O)c2c3c(sc21)CCCC3,i
COc1ccc(S(=O)(=O)Nc2ccc3c(c2)N(S(=O)(=O)c2ccccc2)CCC3)cc1,i
COc1ccccc1-c1cc(C(=O)NCC(N)=O)[nH]n1,i
CS(=O)(=O)C1CCN(C(=O)C23CC4CC(CC(C4)C2)C3)CC1,i
Cc1nn(-c2ncc(NC(=O)Nc3ccc(F)c(Cl)c3)cn2)c(C)c1C,i
CCc1ccc(OCCS(=O)(=O)N2CCN(c3ncncc3C)CC2)cc1,i
O=C(NCC#CCOc1ccc2c(c1)OCO2)c1ccccc1C(F)(F)F,i
Cc1ccc(N2CCCS2(=O)=O)cc1NC(=O)N1CCNC1=O,i
CCc1ccc(NC(=O)Cn2cccc(-c3nc(-c4ccc(Cl)cc4)no3)c2=O)cc1,i
Cc1noc(C)c1CN1CCN(C(=O)/C=C/c2ccc3c(c2)OCO3)CC1,i
O=S(=O)(c1ccc(F)cc1)N1N=C(c2cccs2)CC1c1ccc2nccnc2c1 (centres undefined),i
COc1ccc(C(=O)NCC#CCN(C(C)C)C(C)C)cc1OC,i
Cn1c(=O)[nH]c(=O)c2c1nc(NCCN1CCOCC1)n2CCCOc1ccccc1,i
Cc1cc2c(N3CCN(CCO)CC3)ncnc2s1,i
C/C=C/C=C/C(=O)OC1CCC2OC2C(O)C(O)C(CCC)OC1=O (centres undefined),i

# Remaining list, next part:
SMILES,GIRK2 act
COC(=O)N1CCc2ccc(F)cc2C1C(=O)Nc1cccc(C)n1 (centres undefined),i
Cc1ccccc1OCC(=O)NCc1n[nH]c(=O)c2ccccc12,i
COc1cccc(CN2N=C(C(=O)N3CCCC3)S(=O)(=O)c3ccccc32)c1,i
COc1ccccc1NC(=O)c1nnn2cc(C)[nH]c(=O)c12,i
CC(C)Oc1ccc(C(=O)Nc2c3c(nn2CC(=O)NCc2ccco2)CSC3)cc1,i
COCC(=O)N1CCN(c2ccc(-n3cccc3)nn2)CC1,i
COCc1nc2ccccc2n1CCCOc1ccc(Cl)cc1,i
O=C(NCc1cccs1)NCC1CCN(c2cnccn2)CC1,i
O=C(NCCn1nc(C2CC2)n(-c2ccccc2)c1=O)c1ccco1,i
Cc1ccc(N2CC(NC(=O)c3ccccc3Cl)CC2=O)cc1 (centres undefined),i
COc1ccc(Cl)cc1NC(=O)NC1CCCC(OC(=O)Nc2ccccc2)C1 (centres undefined),i
Cc1ccc(S(=O)(=O)C(NC(=O)c2ccco2)C(=O)N2CCN(C(=O)c3ccccc3)CC2)cc1 (centres undefined),i
CCCn1c(=O)c2cc(Cl)ccc2n2c(SCC(=O)NC(C)CC)nnc12 (centres undefined),i
CCOC(=O)N1CCc2c(sc(NC(=O)c3cccc(C)c3)c2-c2nc3ccccc3s2)C1,i
COc1ccc(OC)c(N2C(=NC(=O)CCCC(=O)O)SC3CS(=O)(=O)CC32)c1 (centres undefined),i
COc1cc(C(C)=O)ccc1OCC(=O)Nc1c(C)nc2ccc(Cl)cn2c1=O,i
COc1cc(CN2COc3ccc4c(c3C2)O/C(=C\c2ccccc2)C4=O)cc(OC)c1OC,i
Cc1ccc(/C=C/S(=O)(=O)NCC2(c3cccs3)CCOCC2)cc1,i
COCCNC(=O)Cn1nc(-c2cccs2)c2sc(N3CCCC3)nc2c1=O,i
O=C(NCc1ccc(C(=O)c2cccs2)s1)c1cc2ccccc2o1,i
Cc1csc(-n2nnc(C(=O)N3CCC4(CC3)OCCO4)c2C)n1,i
COc1ccc2ccccc2c1C1CC(c2cccs2)=NN1C(C)=O (centres undefined),i
COc1cccc(-c2csc(/C(C#N)=C/Nc3ccc(C(=O)OC(C)C)cc3)n2)c1,i
COc1ccc(Br)c(C(=O)N(Cc2ccsc2)CC(F)(F)F)c1,i
Cc1cc(C(O)CCNC(=O)Nc2ccc(Cl)c(Cl)c2)c(C)o1 (centres undefined),i
O=C(CCSc1ccc2ccccc2n1)NCCc1ccccc1,i

# An excerpt (hit frequency here may not be typical).
